Vif TR-FRET: inhibitors of Vif binding to APOBEC3G peptide, primary screen, biochemical, TR-FRET, GST-Vif 1-94, biotin-A3G peptide, dose response retest (AID 1117319); hit rate 0.57% among 260,000; Virion infectivity factor (Human immunodeficiency virus type 1 group M subtype B (isolate …; TR-FRET GST-Vif / biotin-A3G peptide binding; higher % means a stronger effect; test concentration not given here; strong numbers were not always called active; one-dose inhibition, %; IC50 in µM for titrated hits;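 active means above the screen mean plus three standard deviations and confirmed in dose response; inconclusive means results disagree or hit not tested in dose response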;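 further: Vif residues 1-94 fused to GST binding biotinylated APOBEC3G peptide 110-148; 0% = full assay without inhibitor and 100% = GST in place of GST-Vif; retest series ran down from 100 µM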
LANA-H2A inh: blockers of LANA interaction with H2A/H2B – biochemical, FP readout, HTS, primary screen; Protein LANA1 (Human herpesvirus 8 type P (isolate GK18)), Q9QR71; cell-free LANA-H2A/H2B peptide, fluorescence polarization; inhibition, % (test concentration not listed); hit rate 0.6% among 320,000; AID 2629, 2010; in the data active means inhibition mostly above about 10%, no sharp cut-off; inactive means mostly below about 6.7%;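 further: stock transfer was 7.5 nL into about 10 µL; 0% = median of vehicle wells and 100% = median of positive control wells; one replicate is shown; the record names a cut of 25% in any replicate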
Target sequence (Q9QR71 whole entry, looked up): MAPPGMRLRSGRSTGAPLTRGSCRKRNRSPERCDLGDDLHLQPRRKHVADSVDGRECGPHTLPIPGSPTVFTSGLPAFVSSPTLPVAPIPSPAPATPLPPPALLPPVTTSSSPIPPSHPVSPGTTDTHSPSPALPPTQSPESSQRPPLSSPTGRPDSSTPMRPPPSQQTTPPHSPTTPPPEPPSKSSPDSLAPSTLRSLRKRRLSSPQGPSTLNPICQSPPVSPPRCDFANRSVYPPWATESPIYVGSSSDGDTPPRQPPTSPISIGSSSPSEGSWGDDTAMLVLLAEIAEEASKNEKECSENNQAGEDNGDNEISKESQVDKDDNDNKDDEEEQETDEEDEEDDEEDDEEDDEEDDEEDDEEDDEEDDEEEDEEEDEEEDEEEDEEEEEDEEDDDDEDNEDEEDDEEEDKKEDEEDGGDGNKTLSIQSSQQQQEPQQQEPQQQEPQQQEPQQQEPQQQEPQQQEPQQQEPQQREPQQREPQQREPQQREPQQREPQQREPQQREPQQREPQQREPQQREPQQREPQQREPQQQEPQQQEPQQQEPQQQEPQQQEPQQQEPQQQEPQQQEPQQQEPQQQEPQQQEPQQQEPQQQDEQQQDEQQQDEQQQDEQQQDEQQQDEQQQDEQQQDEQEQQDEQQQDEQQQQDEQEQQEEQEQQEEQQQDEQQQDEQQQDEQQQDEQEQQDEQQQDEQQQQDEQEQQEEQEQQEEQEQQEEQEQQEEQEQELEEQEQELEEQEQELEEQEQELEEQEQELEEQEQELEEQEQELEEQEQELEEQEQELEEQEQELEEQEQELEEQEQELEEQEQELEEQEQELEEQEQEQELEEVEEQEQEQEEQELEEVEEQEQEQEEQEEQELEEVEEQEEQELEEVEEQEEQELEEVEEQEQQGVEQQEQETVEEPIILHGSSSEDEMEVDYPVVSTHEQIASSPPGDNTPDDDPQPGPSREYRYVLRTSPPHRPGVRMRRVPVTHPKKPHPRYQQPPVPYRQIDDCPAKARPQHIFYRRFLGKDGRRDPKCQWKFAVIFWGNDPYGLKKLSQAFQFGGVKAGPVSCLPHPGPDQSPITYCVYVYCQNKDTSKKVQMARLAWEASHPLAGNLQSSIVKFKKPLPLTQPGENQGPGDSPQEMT
RanGTP-Imp inh: inhibitors of RanGTP-importin-beta interaction, primary screen, biochemical, FRET, CFP-Ran, YFP-importin-beta, homogeneous. Ran GTPase (GTP-bound) - importin-beta complex. cell-free CFP-Ran/YFP-importin-beta FRET ratio. inhibition, % (no concentration beside the values). hit rate 1.1% among 300,000. AID 2216, 2009;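 active means most replicates above 15%; inconclusive means exactly half above 15%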;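 further: 0% = DMSO wells and 100% = Ran loaded with GDP instead of GTP; wells of about 40 µL received 100 nL stock; the first replicate is given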
Bfl-1 A1 inh: caspase 3/7 activation in MEF A1-2A-BIM cells, primary screen, A1 inhibitor project, cell-based, luminescence, HTS; caspase activation, % (test concentration not listed); hit rate 0.066% among 330,000; Caspase-Glo 3/7 luminescence, 3 h; percent of clofoctol response, vehicle zero; AID 2462, 2010;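 active means over half of replicate activation scores above 10%, or exactly half above 10 with the replicate mean above 10; inconclusive means replicate mean below 10 yet half the replicates above 10; inactive means over half of replicates below 10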;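 further: wells of about 30 µL received 50 nL stock; many hits fall short of the cut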
MLL AF4-AF9 inh: inhibitors of AF4 peptide binding to AF9, primary screen, biochemical, AlphaScreen, biotin-AF4 peptide, FLAG-AF9, single point; inhibition, % at 10 µM; AID 651704, 2012; hit rate 0.47% among 350,000; Protein AF-9 (Homo sapiens), P42568;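 active means every replicate reaching a set inhibition limit, whatever the replicate mean, cut at about 25% in these data; inconclusive means mean inhibition reaches that limit but some replicates miss it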;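 further: 0% = plate neutral control median and 100% = total signal loss; the record names both 10 and 1 µM as test concentration; the first replicate is given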
Beta cell apopt: inhibitors of cytokine-induced beta cell apoptosis, primary screen, luminescence. INS-1E cytokine-induced death, ATP luminescence, 48 h; percent of positive-control rescue, neutral wells zero. protection from apoptosis, % (test concentration not listed). hit rate 0.8% among 300,000;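 active means all replicates at 75% or more, or half of them and the mean; inconclusive means half reach 75% but not the mean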;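 further: 0% = cytokine-treated negative control wells and 100% = positive control rescue; higher means more ATP so stronger rescue from cytokine killing; wells of about 40 µL received 100 nL stock; the first replicate is given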
T cruzi inh: inhibitors of intracellular T. cruzi growth, primary screen, luminescence, NIH3T3 host cells | hit rate 1.4% among 300,000 | T. cruzi beta-gal in NIH3T3, 90 h | inhibition, % (test concentration not listed);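 active means mean inhibition across valid replicates above about 55%, limit read from the data; inconclusive means mean below that limit but half or more replicates reach it; inactive means mean below it, under half of replicates reach it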;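 further: signal also drops with host cell toxicity which is not excluded here; 0% = plate median of DMSO wells and 100% = zero luminescence signal; higher percent means less beta-gal luminescence so fewer parasites; stock transfer was 50 nL into about 50 µL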
Calb FLC: C. albicans growth inhibition with fluconazole, primary screen, CaCi-2 strain, Alamar Blue fluorescence. C. albicans CaCi-2 (fluconazole-resistant clinical isolate) + fluconazole, 48 h. growth inhibition, % (no concentration beside the values). hit rate 0.57% among 300,000;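 active means most replicates above 75%; inconclusive means exactly half above 75%; inactive means most below 75%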;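 further: all wells also contain fluconazole at 8 µg/ml as a sub-toxic cotreatment; 0% = median of DMSO wells and 100% = median of geldanamycin control wells; wells of about 8 µL received 7.5 nL stock; the first replicate is given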
* = called active by the depositor; u = inconclusive; x = not tested or not shown; & = joins results of further samples.

SMILES	Vif TR-FRET	LANA-H2A inh	RanGTP-Imp inh	Bfl-1 A1 inh	MLL AF4-AF9 inh	Beta cell apopt	T cruzi inh	Calb FLC
CN(CC(=O)Nc1ccc2c(c1)OCCO2)S(=O)(=O)c1cccc2cccnc12	31%	2.6	2.2	0.3	-2.3	2	18	0
O=C(c1ccccc1OCc1ccc(Cl)cc1)N1CCN(c2ccccn2)CC1	9%	-1.9	2.9	0.2	-0.4	-3	21	2
COC(=O)CSc1n[nH]c(-c2ccncc2)n1	-7%	1.9	2.3	0.6	x	-1	-2	-2
Cc1c([N+](=O)[O-])c([N+](=O)[O-])nn1CC(=O)NCc1cccnc1	1%	0.0	-4.5	1.7	-3.5	-9	4	0
O=C(CSc1nnc(-c2c[nH]c3ccccc23)o1)N1CCCCC1	10%	1.9	-3.8	-0.5	-14	3	-5	-5
O=C(O)c1cc(-c2ccc(Cl)cc2)n(-c2ccccc2)n1	-2%	0.5	-2.4	0.4	-1.1	5	-14	-10
COc1cc(C(=O)NNC(=O)C2CC2)cc(OC)c1OC	x	2.6	4.3	0.5	-0.1	0	2	2
Cc1ccc(C2N(c3ccc(F)cc3)C(=O)C3CCCN32)cc1 (stereo not drawn)	-3%	-1.5	3.1	-0.2	-0.1	-5	-2	-4
O=c1oc2ccccc2cc1-c1nc(-c2cccs2)cs1	u	-0.3	-85	-0.8	x	-2	-3	-3
Fc1ccccc1N1CCN(CCCNc2ccc3nncn3n2)CC1	9%	-0.2	u	-0.1	3.5	x	20	3
CN1C(=O)NC(NC(=O)C2CCCCC2)(C(F)(F)F)C1=O (stereo not drawn)	2%	3.4	u	0.5	x	-2	9	-3
O=C(c1ccoc1)N1CCC2(CC1)Oc1ccc(Cl)cc1C(=O)C21CC(c2ccccc2)=NO1 (stereo not drawn)	x	0.8	4.7	-0.3	9.9	-2	36	11
C=C(C)Cn1c(N2CCN(c3ccc(OC)cc3)CC2)nc2c1c(=O)n(C)c(=O)n2C	x	-2.8	0.0	-0.1	9.9	-3	10	3
CC(=O)Nc1ccc(NC(=O)C2CCCN(S(=O)(=O)c3ccc(-n4cnnn4)cc3)C2)cc1 (stereo not drawn)	x	1.1	3.4	0.1	0.4	-6	-4	9
CCN(c1ccccc1)S(=O)(=O)c1ccc(Cl)c(NC(=O)CSc2nncs2)c1	19%	3.0	2.9	0.2	x	2	11	4
CCOC(=O)C(CC)(CC)C(=O)/C=C/c1cccc(Br)c1	-1%	1.1	3.4	0.3	x	8	42	5
CSCCCNC(=O)c1ccccc1OC1CCN(S(C)(=O)=O)CC1	-3%	-4.8	-11	1.0	0.0	-2	0	2
O=C(Nn1cnnc1)c1ccccc1F	x	-2.2	2.5	0.8	1.3	-3	-7	1
COCCN(C(=O)CC1C(=O)NCCN1Cc1ccc(-c2ccccc2)cc1)C(C)C (stereo not drawn)	-10%	-0.1	-3.5	-0.1	0.7	2	9	2
Nc1cccc(C(=O)NCCNC(=O)c2cccc(N)c2)c1	-4%	5.7	3.6	0.2	-3.0	-7	-2	x
Cc1nc(C(=O)Nc2ccccc2)sc1C1(C)CC(c2cccnc2)=NO1 (stereo not drawn)	5%	-0.5	5.9	-0.8	2.2	4	-14	-19
CCCCC(=O)Nc1ccc(C(=O)N2CCC(C(=O)OCC)CC2)cc1	6%	4.3	u	-0.7	x	-6	-11	-17
Cc1cc(Cl)ccc1NC(=O)CN1CCC(C(O)(c2ccccc2)c2ccccc2)CC1	2%	-0.3	7.6	-0.1	x	-6	52	35
CC(C)(C)C(=O)NC1CCN(S(=O)(=O)c2ccc(C(F)(F)F)cc2)CC1	-5%	1.1	3.6	0.8	1.2	2	8	3
O=C(Nc1ccc(N2CCCCC2)c(Cl)c1)c1ccc(N2CCOCC2)c([N+](=O)[O-])c1	5%	-2.3	1.6	-0.1	x	31	62*	40
SMILES	Vif TR-FRET	LANA-H2A inh	RanGTP-Imp inh	Bfl-1 A1 inh	MLL AF4-AF9 inh	Beta cell apopt	T cruzi inh	Calb FLC
O=C(Cc1ccccc1)NNC(=O)C1CCCC1	-1%	-5.0	3.4	0.5	0.4	2	-5	3
COc1ccc(N2CCN(C(=O)c3cc4c(s3)-c3ccccc3OC4)CC2)cc1	x	-2.5	3.2	0.0	-11	1	-21	1
Cc1sc2nc(COC(=O)c3cccc(S(=O)(=O)N(C)c4ccccc4)c3)[nH]c(=O)c2c1C	x	-2.1	-19	0.7	x	2	6	3
CCOC(=O)N1CCC(N(CCN(C)C)C(=S)Nc2ccc(F)c(Cl)c2)CC1	2%	-3.7	-1.3	-1.2	-3.2	-6	-21	-7
O=C(Nc1cccc(C(F)(F)F)c1)c1cccc(NS(=O)(=O)c2ccc(O)c(C(=O)O)c2)c1	7%	4.6	2.7	-0.5	-3.7	-12	-11	2
CCN(C[C@H]1N[C@@](C)(C(=O)OC)[C@H]2C(=O)N(Cc3ccccc3)C(=O)[C@@H]12)S(=O)(=O)c1ccc(OC)cc1	5%	7.8	x	0.6	-0.2	-11	x	x
CCC(=O)Nc1cccc(NC(C)=O)c1	15%	x	3.0	x	x	x	-2	0
CCN(CC)C(=O)Oc1ccccc1NC(C)=O	21%	1.6	6.3	0.3	x	2	-11	-3
OCCN(CCO)CC(O)COc1ccc(Br)cc1 (stereo not drawn)	5%&9%	-4.2&3.1	0.6&-1.8	0.1&-0.6	-3.9	-3&-5	8&10	-12&0
CCCCc1nc2cc(C(=O)NCc3cc(C)n(C)n3)ccc2o1	x	0.7	4.2	-0.4	-16	-2	-16	1
Cc1ncc(S(=O)(=O)C(C)(C)C)c(N)n1	-9%	-1.2	5.1	-0.9	x	-1	-5	31
COc1cccc(-n2c(C)c3c(OC)cccc(=O)c3c2C)c1	32%	6.4	0.3	0.1	10	-2	27	-1
O=C(CSc1nc(-c2cccs2)nc2ccccc12)NC1CCS(=O)(=O)C1 (stereo not drawn)	-8%	-1.0	x	-0.6	-0.7	-3	x	x
CN(c1nc2ccccc2nc1Cl)S(=O)(=O)c1ccccc1	2%	5.9	-1.9	-0.3	0.7	0	-3	-10
COc1cc(OC)cc(C(=O)Nc2ccc(S(=O)(=O)Nc3cc(C)nc(C)n3)cc2)c1	u	-1.4	0.4	1.4	x	2	-13	-3
O=C(CCNS(=O)(=O)c1ccc(Br)s1)NCc1ccccc1	31%	0.0	5.1	0.7	-0.8	-2	0	-7
COc1ccc(N(CC(=O)NCCOc2ccccc2)S(=O)(=O)c2ccc(C)cc2)cc1	x	4.6	-0.6	-0.6	4.8	6	28	-3
CC(=O)CCc1c(C)[nH]c2ccc(NC(C)=O)cc2c1=O	-3%	0.8	-2.1	1.2	x	x	-4	26
Clc1cnc(Nc2cccnc2)c(Cl)c1	u	-2.3	-0.8	0.1	1.2	-8	-8	2
CCOc1ccc(CN2CCCC(CO)(Cc3ccccc3F)C2)cc1 (stereo not drawn)	x	0.3	-14	0.4	-18	x	26	0
CC(=O)c1cnc(Nc2nc(C)c3ccc(C)cc3n2)nc1C	0%	3.7	-0.8	-6.1	x	-3	-17	11
CCC(C)NS(=O)(=O)c1ccc(NC(=O)C(Sc2ccccc2)c2ccccc2)cc1 (stereo not drawn)	x	-3.7	-2.2	1.4	-1.1	19	58*	3
CC(C)(C)c1cc(CN2CCOCC2)c(C(=O)O)o1	-1%	4.9	-3.1	-0.7	x	1	-7	4
CC(C)(C)NC(=O)C(c1ccccn1)N(C(=O)c1csnn1)C1CCCC1 (stereo not drawn)	6%	0.6	2.5	0.3	-6.7	1	-4	-1
O=C(c1ccco1)N1CCN(C(=O)c2ccc(COc3ccc(Cl)cc3Cl)o2)CC1	18%	4.0	-0.4	0.4	x	10	16	19
SMILES	Vif TR-FRET	LANA-H2A inh	RanGTP-Imp inh	Bfl-1 A1 inh	MLL AF4-AF9 inh	Beta cell apopt	T cruzi inh	Calb FLC
Cc1cc(C)cc(S(=O)(=O)Cc2noc(C(=O)NCc3ccccc3)c2C(=O)NCc2ccccc2)c1	x	-0.9	x	0.9	-1.2	-1	x	x
CCN(CC)P(=O)(Nc1ccccc1Br)c1ccc(N(C)C)cc1NC(=O)c1ccco1 (stereo not drawn)	-2%	-2.9	-1.2	-0.3	-2.2	9	57*	25
Nc1cccc(C(=O)Nc2ccc(N)cc2Cl)c1	-1%	1.6	-1.0	0.4	u	-10	-2	-3
CCCCN(CC)CCNS(=O)(=O)c1ccc2c(c1)oc(=O)n2C	6%	-4.7	-2.2	1.1	x	-6	-10	-2
Cc1ccc(S(=O)(=O)Cn2cnnn2)cc1	20%	1.4	1.9	-0.3	x	-8	-7	-5
O=C(c1ccc(Cl)nc1)c1cccs1	24%	-1.0	0.8	-1.1	x	-4	-15	1
COc1ccc(-c2nc(CS(=O)(=O)CC(=O)NCc3ccccc3Br)c(C)o2)cc1	x	7.4	-7.2	0.8	-1.1	-3	-1	4
CCOC(=O)N1CCc2c(sc(NC(=O)CN3CCOCC3)c2C#N)C1	4%	12	-0.1	0.5	0.0	x	-10	2
COc1ccc(C(=O)C2CCCN(C(=O)c3noc4c3CCCC4)C2)c(C)c1 (stereo not drawn)	-2%	-4.6	-1.5	0.2	-0.7	-10	8	10
CCc1ccc(-c2cc(C(=O)Nc3c(C)n(C)n(-c4ccccc4)c3=O)c3ccccc3n2)s1	0%	-8.4	-2.1	0.8	17	3	15	39
N=c1c(C(=O)NCC2CCCO2)cc2c(=O)n3ccccc3nc2n1Cc1ccccc1Cl (stereo not drawn)	x	3.1	188*	-0.4	-1.5	26	0	51
O=C(NC(=S)N1CCOCC1)c1ccccc1Cl	-7%	0.8	2.2	-0.2	-0.4	x	-28	-4
O=C(Cc1ccccc1F)Nc1nc(-c2cccnc2)cs1	x	-3.0	8.9	-0.4	-0.1	-12	-1	u
Nc1c(N=Nc2cccc(Cl)c2)c(=O)[nH]n1-c1ccccc1	1%	-1.3	1.4	0.4	x	1	8	-4
CCOC(=O)c1cn(CC(=O)Nc2ccc3c(c2)OCCO3)nn1	2%	5.8	-2.7	0.1	x	-1	-7	u
CS(=O)(=O)c1ccc2nc(NC(=O)CN3C(=O)NC4(CCCC4)C3=O)sc2c1	x	-2.2	2.1	0.2	-1.1	-8	-4	1
CCOc1ncccc1C(=O)NCCc1ccc(Cl)cc1	-1%	-1.4	-0.3	-0.9	0.4	2	-3	x
CN1CCC(=NNc2ccc(S(=O)(=O)N3CCOCC3)cc2[N+](=O)[O-])CC1	13%	-0.5	-0.3	-0.4	6.2	-1	37	5
N/C(=N\OC(=O)CC1CCCCC1)c1ccccc1	-5%	-0.6	-0.4	-3.1	-6.2	-11	14	-2

Source: PubChem

Rows are unselected, and some 4.3% of all compounds hit somewhere here.
